Screening results from PubChem.
PINK1 modulator: A Quantitative High throughput Screen to Identify Chemical Modulators of PINK1 Expression. PINK1 immunofluorescence, high-content cytometry, 24 h. 410,000 tested, 0.2% active. Potency, µM (series often up to 76.6 µM), without a hit: at the highest dose activation (PINK1 increase), usual class: activators; active = well fitted activation curve with a large enough effect; inconclusive = small, poorly fitted or top-dose-only effect; inactive = flat fitted curve, though single readings scatter; cell line not stated here;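 further: potency means the concentration at half of the fitted maximal effect; % of control where 0% means no effect; nearly all actives have a fitted effect of over 65% in size; a mitochondrial uncoupler was the plate control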
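Stable cell line, 250 cells/well, 12 h attachment; compounds pinned at 5 concentrations, 24 h; CCCP control. Fixed with nuclear dye, primary antibodies 12 h at 10 degrees C, secondary plus cell stain; laser-scanning cytometer read.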
Menin-MLL FL inh: qHTS Assay for Inhibitors Targeting the Menin-MLL Interaction in MLL Related Leukemias: Competition With Fluorescein Labeled MLL-derived Peptide; FP activity change, % at 61.4 µM; AID 1766, 2009; 290,000 tested, under 10 active; Fluorescence polarization, fluorescein-MLL peptide displacement from menin; inconclusive = falling polarisation curve, or a change in total fluorescence; inactive = total fluorescence flat and polarisation flat or rising; no compound was filed as active; the % refers to the polarisation; negative = inhibition;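 further: % of control where 0% means no effect; inhibitors lower the polarisation; unlabelled MLL peptide was the positive control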
D2 ag: Beta-Arrestin HTS for Positive Allosteric Modulators of the Human D2 Dopamine Receptor: Agonists | D(2) dopamine receptor (Homo sapiens), P14416 | DiscoveRx PathHunter D2 beta-arrestin, luminescence, 90 min; 100% = 57 uM dopamine signal | activation, % (test concentration not listed) | 360,000 tested, 0.084% active | AID 624465, 2012; in the data active = activation above about 40%; inconclusive = about 15% to 40%; inactive = below about 15%; further: compound concentration not given in the record; the text of the record calls up to 30% inactive
Target sequence (P14416 whole entry, looked up): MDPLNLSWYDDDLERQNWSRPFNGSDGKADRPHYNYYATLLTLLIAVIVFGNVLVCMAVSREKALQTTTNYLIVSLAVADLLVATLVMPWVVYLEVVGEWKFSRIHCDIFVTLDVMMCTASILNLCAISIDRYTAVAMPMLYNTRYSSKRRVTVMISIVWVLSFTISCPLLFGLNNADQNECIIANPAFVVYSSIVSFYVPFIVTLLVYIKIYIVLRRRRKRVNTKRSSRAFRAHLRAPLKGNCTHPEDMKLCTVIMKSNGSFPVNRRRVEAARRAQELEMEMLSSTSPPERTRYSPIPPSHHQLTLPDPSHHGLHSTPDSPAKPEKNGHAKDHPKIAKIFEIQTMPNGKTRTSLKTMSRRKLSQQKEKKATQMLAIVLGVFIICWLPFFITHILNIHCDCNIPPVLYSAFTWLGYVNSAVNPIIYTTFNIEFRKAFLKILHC
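Agonist mode: compounds alone added to overnight-plated D2 PathHunter cells for 90 min at 37 C, with 57 uM final dopamine (EC100) defining full response. Beta-arrestin recruitment detected by chemiluminescent reagent, read after 1 h at ambient temperature.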
gsp antag: qHTS for Antagonists of gsp, the Etiologic Mutation Responsible for Fibrous Dysplasia/McCune-Albright Syndrome: qHTS. gsp-mutant cells, cAMP HTRF, 30 min; control for the full effect not named in the record. 340,000 tested, 0.4% active. Potency, µM (titrated, usually from 76.9 µM), for the others: at the highest dose activity change, negative = inhibition, hits mostly inhibitors; active = falling curve of any shape with a large fitted effect; inconclusive = falling curve, mostly with a smaller effect; inactive = flat or rising curve; cell line not stated here;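 further: intracellular cAMP measured with PDE inhibitor Ro 20-1724 present during compound exposure; potency means the concentration at half of the fitted maximal effect; on the % scale 0 is the no-effect control and ±100 the full control effect; nearly all actives have a fitted effect of over 65% in size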
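Cells in G418 medium, seeded 16-24 h, 37C; buffer exchange to DPBS + 1 mM CaCl2, 0.5 mM MgCl2, 0.05% BSA; cpds in DMSO + […] (300 uM stock), 30 min 37C; HTRF cAMP detection.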
Sfp PPTase inh: qHTS Assay for Inhibitors of Bacillus subtilis Sfp phosphopantetheinyl transferase (PPTase). 4'-phosphopantetheinyl transferase ffp (Bacillus subtilis), Q9F4F7. 310,000 tested, 3.5% active. Biochemical Sfp PPTase activity, qHTS. Potency, µM, inactives show max response, negative = inhibition, hits mostly inhibitors; active means well fitted inhibition curve with a large enough effect; inconclusive means small, poorly fitted or top-dose-only effect, or another doubt; inactive means no such curve, though single readings can be large or run the other way;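 further: the enzyme is Sfp with the accession as filed and its product quenches rhodamine fluorescence; potency means the concentration at half of the fitted maximal effect; 0% = enzyme reaction without inhibitor and -100% = no enzyme wells; top concentration of the series not given in the record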
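Compounds were incubated with enzyme (final 15 nM) for 15 min at room temperature before substrate addition started the reaction. Fluorescence at 525 nm excitation, 598 nm emission was recorded immediately and after 30 minutes.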
gsp ag: qHTS for Agonist of gsp, the Etiologic Mutation Responsible for Fibrous Dysplasia/McCune-Albright Syndrome: qHTS; Potency, µM (titrated, usually from 76.9 µM), for the others: at the highest dose activation (cAMP increase), hits mostly activators; 340,000 tested, 0.13% active; AID 624287, 2012; gsp mutant cells, cAMP HTRF, 30 min; control for the full effect not named in the record; active = well fitted activation curve with a large enough effect; inconclusive = small, poorly fitted or top-dose-only effect, or another doubt; inactive = no such curve, though single readings can be large or run the other way; cell line not stated here;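 further: phosphodiesterase inhibitor Ro 20-1724 added with compounds to block cAMP breakdown; potency means the concentration at half of the fitted maximal effect; nearly all actives have a fitted effect of over 60% in size; about a fifth of the inactives were tested at one dose only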
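Cells in DMEM/10% FBS with G418 were pretreated with compounds in DMSO plus […] (300 uM stock) for 30 min at 37C. cAMP was measured by HTRF (cAMP-d2 plus anti-cAMP antibody-K) after 30 min at room temperature.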
ClpP mod: qHTS Assay for Activators of ClpP | Potency, µM (highest dose often 57.5 µM), for the others: at the top dose activity change, negative = active | purified B. subtilis ClpP, FRET peptide cleavage, 20 min | ATP-dependent Clp protease proteolytic subunit (Bacillus subtilis (strain 168)), P80244 | 340,000 tested, 1.9% active | AID 651965, 2013; active = well fitted falling curve with a large enough effect; inconclusive = small, poorly fitted or top-dose-only effect; inactive = no such curve, though single readings can be large or run the other way; further: potency means the concentration at half of the fitted maximal effect; the source files actives as falling curves though it sought activators and does not explain the sign; nearly all actives have a fitted effect of over 65% in size; many hits overshoot -100%
Target sequence (P80244 whole entry, looked up): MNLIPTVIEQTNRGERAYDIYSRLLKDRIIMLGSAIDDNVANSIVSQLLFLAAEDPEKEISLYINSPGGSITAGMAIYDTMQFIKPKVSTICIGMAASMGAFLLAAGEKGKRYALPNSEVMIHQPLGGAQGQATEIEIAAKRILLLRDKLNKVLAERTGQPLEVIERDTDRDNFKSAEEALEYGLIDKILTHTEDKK
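ClpP 10 microg/mL final, pH 8 Tris/KCl buffer with BSA, glycerol, Tween-20; compound pinned in; FRET-FV substrate; RT 20 min; Ex320/Em430; ΔFRET vs ADEP 5.8 microM, DMSO, no enzyme.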
* hit, by the source's call; ? = inconclusive; nt = not tested or not shown; & = joins results of further samples; [ ] = another dose, or the depositor's remark.

SMILES,PINK1 modulator,Menin-MLL FL inh,D2 ag,gsp antag,Sfp PPTase inh,gsp ag,ClpP mod
CC1CC(CC(=O)NNc2nc(-c3ccccc3)cs2)C(=O)O1 (configuration not stated),4.7%,-2.5,-4.0,15%,-30%,-23%,1.5%
Cc1csc(NC(=O)c2ccc(COc3ccccc3)o2)n1,-1.4%,-0.3,1.8,-20%,-7%,5%,nt
CN(C)c1nc(N)c([N+](=O)[O-])c(NCCO)n1,-2.9%,5.4,0.3,-2%,7%,4%,-3.6%
CCOc1ccc(OCC)c(NC(=O)CCSCCc2ccccn2)c1,2.0%,-1.2,-5.7,-9%,-1%,?,nt
N/C(=N\OC(=O)CCC1CCCC1)c1cccc([N+](=O)[O-])c1,12%,4.8,-3.8,8%,10%,-4%,-2.8%
COc1ccc(C(=O)NC2CC2)cc1OC1CCN(Cc2ccc(F)c(F)c2)CC1,0.0%,nt,3.7,10%,13%,?,1.2%
COc1ccccc1N1CCN(C(=O)C2CCCN(S(=O)(=O)c3ccc4c(c3)CCCN4C(C)=O)C2)CC1 (configuration not stated),0.2%&-1.3%,-6.2,1.4,?,4%,-26%[15.4 µM],0.9%
CN1C(=O)Cc2cc(S(=O)(=O)N3CCN(c4ccccc4F)CC3)ccc21,1.0%&0.2%,3.3,2.9,6%,5%,-10%,-1.2%&1.9%
CC(C)N(C(=O)COC(=O)c1ccccc1C(=O)N1CCN(c2ccc(F)cc2)CC1)C(C)C,1.3%[38.3 µM],6.0,-3.0,-9%,5%,2%,-0.6%
COC(=O)c1ccnc(/C=N/O)c1,7.7%[38.3 µM],0.3,0.9,0%,50µM*,-19%,0.0%
COc1ccc(C(=O)C(CN2CCCC2)c2ccccc2)cc1 (configuration not stated),-1.8%,-3.2,-6.0,3%,-1%,20%,-1.1%
CCOc1cc(C)nc(N2CCC(C(=O)Nc3ccccc3OCC)CC2)n1,nt,3.3,3.2,-4%,3%,-52%[inhibitor],-20%
COc1ccc(S(=O)(=O)NC(C)C(=O)Nc2cccc(C(C)=O)c2)cc1 (configuration not stated),-2.6%,-7.7,4.7,6%,-19%,-1%,-0.7%
COc1ccc(NC(=O)CN(C)CC(=O)Nc2cccc(C(F)(F)F)c2)cc1,-0.1%,1.6,6.9,-9%,-3%,10%[15.4 µM],9.6%
Cc1cc(F)ccc1S(=O)(=O)N1CCCOC1CNC(=O)C(=O)NCC(C)C (configuration not stated),-0.4%,nt,0.3,14%,9%,2%,-1.9%
O=S(=O)(NCc1ccccc1F)c1cccc(S(=O)(=O)N2CCOCC2)c1,-2.7%,-3.8,6.3,1%,-3%,?,nt
c1ccc([C@H]2CC3C[C@@H](c4ccccc4)N2O3)cc1,-0.1%,-0.1,-0.8,6%,20%,?,-21%
COC(=O)C1(CC2CC(c3ccccc3)=NO2)CCN(C(=O)OC(C)(C)C)CC1 (configuration not stated),0.3%,nt,-1.7,-11%,nt,-3%,-0.7%
CCn1nnnc1-c1ccc(OC)c(S(=O)(=O)Nc2ccccc2OC)c1,1.8%,nt,-3.5,nt,nt,29%,-2.3%
CC(=O)COc1nc2c(c(-c3ccco3)c1C#N)CCc1ccccc1-2,0.2%,3.8,-1.7,-18%,-6%,0%[15.4 µM],nt
O=C(O)c1cc(-c2cccs2)nn1-c1ccccc1,3.3%,-2.4,-4.3,3%,28%,-34%[inhibitor],-6.0%
O=C(NC1CCCCCC1)C(=S)NC1CCCCC1,5.2%,-0.8,-2.6,13%,20µM*,-9%[15.4 µM],-1.7%
O=C(c1ccccn1)N1CCN(S(=O)(=O)c2ccc3ccccc3c2)CC1,0.5%,0.7,6.7,1%,9%,26%[15.4 µM],nt
Cc1ccccc1NC(=S)NCCc1ccccc1,2.8%,0.1,-2.4,-16%,8%,-10%,0.6%
O=P(O)(O)C(O)C(F)(F)C(F)(F)C(F)(F)C(F)F (configuration not stated),0.6%,-2.1,-2.0,5%,-8%,-2%,-1.4%
Cc1ccc(-c2ccccc2NC(=O)C2C3C=CC(C3)C2C(=O)O)o1 (configuration not stated),1.7%,9.4,-1.9,-4%,25µM*,2%,25µM*
CC(C)C(NC(=O)c1c(F)cccc1F)C(=O)NC1CC(C)(C)NC(C)(C)C1 (configuration not stated),3.6%,2.3,1.5,2%,1%,-15%,nt
S=C(NCc1ccccc1)Nc1cccc2ccccc12,-0.2%,-0.5,-0.7,7%,15%,-36%[inhibitor],?
Cc1cc(Cl)ccc1NC(=S)NCc1ccco1,-0.8%,0.4,0.0,4%,7%,?,1.8%
Cc1cc(OC(=O)N2CCCCC2)cc(C)c1Cl,2.8%,-1.8,-4.4,?,0%,3%,0.3%
COc1ccc(OCCC(=O)N2CCOCC2)cc1,-1.2%,3.2,-2.8,2%,27%,22%[15.4 µM],nt
O=C(Nc1ccc(-n2cnnn2)cc1)c1cc(S(=O)(=O)N2CCCC2)ccc1Cl,1.2%,nt,-1.2,6%,nt,1%,-2.6%
O=C1C=C(NCc2ccco2)CC(c2ccc(Cl)cc2)C1 (configuration not stated),3.2%,7.8,-4.4,-15%,6%,8%,1.8%
Cc1cc(Nc2ncc(Cl)cc2Cl)n(-c2ccccn2)n1,1.3%,-2.3,-3.1,10%,3%,-10%[15.4 µM],1.2%
COC(=O)CSc1[nH]c2ccc(Br)cc2c1[N+](=O)[O-],3.9%,-3.1,-0.1,-20%,-3%,30%,nt
O=C(c1ccc(CNS(=O)(=O)c2ccc(Br)cc2)cc1)N1CCCCC1,0.3%,1.1,1.4,4%,12%,0%,0.5%
C=CCN(CC=C)Cc1ccc(C(=O)OC)o1,1.7%,-1.1,0.5,-1%,3%,-10%,-0.2%
CCCOc1ccc(C=Nc2ccc(OC)c(S(=O)(=O)N3CCOCC3)c2)c(O)c1,1.5%,nt,-2.4,-2%,nt,30%,-7.1%
N#Cc1ccc2nc3c(nc2c1)CCCC3,-0.9%,5.7,6.1,5%,6%,0%,nt
O=C1CCCN1CCCNS(=O)(=O)c1ccc(F)cc1F,-0.6%,-0.6,-1.7,10%,10%,0%[15.4 µM],nt
O=S(=O)(c1ccccc1)C1CON(Cc2ccccc2)C1c1ccccc1 (configuration not stated),0.0%,0.0,-0.1,12%,2%,0%[15.4 µM],nt
COc1ccccc1OCC(=O)NCCS(=O)(=O)N1CCN(c2ccccc2)CC1,1.5%,nt,?,0%,nt,-34%[inhibitor],-23%
Cc1ccn2cc(C(=O)NC3CCN(Cc4ccccc4)CC3)nc2c1,nt,2.2,-1.0,-1%,10%,-41%[inhibitor],-24%
COC(C[C@@H]1O[C@@H]1[C@H](O)[C@H](C)OCc1ccccc1)OC,0.1%,5.0,-3.7,7%,12%,nt,0.4%
COc1ccc(NC(=O)CNC(=O)c2nn(-c3ccc(OC)c(OC)c3)c(=O)c3ccccc23)c(OC)c1,12%,1.7,4.7,-5%,1%,1%,nt
CC(=N[C@@H]1CCCC[C@H]1N=C(C)c1ccccc1O)c1ccccc1O,4.0%,1.6,1.0,10%,-6%,-21%,0.3%
Cn1c(SCC(=O)Nc2ccc(NC(=O)c3ccccc3F)cc2)nnc1-c1ccncc1,1.4%,nt,-1.5,50µM*,4%,6%[15.4 µM],nt
COc1ccc(CCN2C(=S)N(C)C(=O)C2CC(=O)Nc2ccc(F)cc2)cc1 (configuration not stated),?,-2.5,-1.1,-13%,-3%,-10%[15.4 µM],nt
COCCNC(=O)C(c1cccs1)N(C(=O)Cn1nnc2ccccc21)c1ccc(OC)cc1 (configuration not stated),0.1%,-0.4,-0.2,3%,6%,1%,-2.3%
CCOC(=O)c1cc(-c2csc(Nc3c(C)cc(C)cc3C)n2)on1,-1.9%,5.1,-1.4,-52%,?,-1%[15.4 µM],1.3%
CCc1nnc(NC(=O)c2cc(S(=O)(=O)N3CCCCC3)ccc2C)s1,1.1%,nt,-0.5,?,nt,-3%,-0.8%
O=C1CCN(CCCc2ccccc2)CCN1CCO,-0.1%,1.7,0.7,18%,16%,nt,1.2%
Cc1ccc(Cl)cc1-c1ccc(C=Nc2ccc(N3CCOCC3)cc2)o1,2.4%,13,4.5,-9%,?,28%,-13%
Cc1ccc(C(C(=O)NC2CCCCC2)N(CCCN2CCOCC2)C(=O)c2snc(C(N)=O)c2N)cc1 (configuration not stated),-0.3%,-0.3,-3.0,-24%,23%,7%[15.4 µM],nt
C=CCn1cc(C(=O)NCc2ccco2)c(=O)c2cc(S(=O)(=O)N3CCCCCC3)ccc21,nt,5.0,-3.7,-16%,0%,8%,-7.4%
CCC/C(=N/NC(=O)c1cccc(Cl)c1)c1ccccc1,2.5%,0.2,-2.9,-7%,-5%,-30%,1.2%
COc1cccc(/C=N/n2c(-c3cccs3)n[nH]c2=S)c1,-3.4%,6.6,-2.9,-11%,-10%,-1%,-1.5%
Cc1ccc(S(=O)(=O)N2CCOCC2)cc1C(=O)OCC(=O)c1ccc(Br)cc1,0.9%,nt,4.1,-10%,nt,-8%,-1.2%
CCN(CC(=O)NC(=O)NC1CCCCC1)Cc1nc2ccccc2c(=O)[nH]1,-0.7%,3.4,0.7,-1%,?,12%,-0.5%
COCCCn1c(SCc2nc3ccccc3c(=O)[nH]2)nc2ccccc2c1=O,2.8%,-0.1,12,13%,2%,-27%,-3.9%
O=C(CNC(=O)c1cccs1)NCCN1CCN(Cc2ccccc2)CC1,?,-1.0,-0.8,2%,18%,-41%[inhibitor],-2.0%

Compounds were not picked by outcome; any-hit rate near 5.1%.
